MT1-MMP promoter – MT1-MMP gene expression reporter suppression – cell-based, luciferase reporter, luminescence (AID 618) | MT1-MMP promoter luciferase reporter cells, luminescence | calls from a first round at 10 µM; hits with a dose series show EC50 in µM | hit rate 0.62% among 87,000;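 active = over half of the reporter light lost at 10 µM or EC50 under 50 µM; inactive = the rest and hits that failed the dose series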;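 also: actives suppress MT1-MMP promoter-driven transcription so potencies describe inhibitors; HT1080 fibrosarcoma cells; overnight exposure; toxic or luciferase-blocking compounds were not removed from the actives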
Hsc70 ATP site – small molecules displacing fluorescent ligand from Hsc70 – biochemical, fluorescence polarization, primary screen (AID 568); Hsc70 fluorescence polarization, probe displacement; higher % means a stronger effect; strong numbers were not always called active; displacement, % at 20 µM; hits with a dose series show IC50 in µM; 83,000 tested, under 10 active;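 active = displacement above 50% without optical interference and an IC50 on retest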;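 also: ATPase domain with a fluorescein-tagged ATP probe; 0% = vehicle and 100% = excess ADP; read after one hour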
WNV NS2B-NS3 inh – blocks West Nile virus NS2B-NS3 protease activity; z-score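 (tested at a level between 10 and 100 µM)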; hit rate 0.18% among 65,000; P06935; WNV NS2B-NS3 protease, fluorogenic substrate Ex360/Em465; active compounds read low;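 active = z-score at -3 or under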;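 also: score is relative to mean and spread of the compound wells of a plate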
Target sequence (P06935 1371-1501 limits assumed): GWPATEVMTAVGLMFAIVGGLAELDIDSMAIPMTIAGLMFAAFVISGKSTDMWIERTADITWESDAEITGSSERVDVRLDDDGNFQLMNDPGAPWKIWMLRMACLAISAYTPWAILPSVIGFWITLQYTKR
Target sequence (P06935 1502-1679 limits assumed): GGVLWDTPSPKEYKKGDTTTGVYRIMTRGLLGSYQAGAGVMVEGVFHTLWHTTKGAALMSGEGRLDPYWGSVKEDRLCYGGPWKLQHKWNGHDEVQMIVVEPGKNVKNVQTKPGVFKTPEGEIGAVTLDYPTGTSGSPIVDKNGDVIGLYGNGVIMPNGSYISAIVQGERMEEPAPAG
The depositor's hits bear a star; i = inactive; nt = no result given. Compounds were not picked by outcome, and some 0.77% of all compounds hit somewhere here.

SMILES | MT1-MMP promoter | Hsc70 ATP site | WNV NS2B-NS3 inh
C=CCOc1ccc(C2OC34CCCCC3C(C#N)(C#N)C2(C#N)C(=N)O4)cc1 (stereo unspecified) | i | 3.6% | nt
COc1ccc(N2CCN(C(CNC(=O)c3cccc(Cl)c3)c3cccnc3)CC2)cc1 (stereo unspecified) | i | 1.4% | 0.05
O=C(CCS(=O)(=O)c1cc(Br)cc2c1N(C(=O)C1CC1)CC2)NCC1CCCO1 (stereo unspecified) | i | -0.2% | 0.34
Cc1nc2ncnn2c(C)c1CCC(=O)NCCc1ccccc1 | i | 3.5% | nt
CCCOC(=O)C1=C(C)NC2=C(C(=O)CCC2)C1c1cccs1 (stereo unspecified) | i | 0.6% | -0.39
COc1ccc(NC(=O)C2CCN(C(=O)c3ccccc3)CC2)cc1OC | i | -8.7% | -1
CCNc1nc(N)nc(Oc2ccc(OCC)nn2)n1 | i | 6.4% | 0.84
O=C(c1ccc(CNS(=O)(=O)c2cccc(C(F)(F)F)c2)cc1)N1CCOCC1 | i | 5.1% | -0.04
OCCN(Cc1ccccc1)Cc1ccccc1Cl | i | -0.6% | 1.1
O=C(Nc1ccccc1)C1CC(=O)N(C2CCCCC2)C1 (stereo unspecified) | i | 2.0% | -1.2
O=C(Nc1ccc(N2CCN(C(=O)c3ccccc3)CC2)cc1)c1cc2ccccc2o1 | i | 2.5% | 0.01
O=C(CSc1nc(-c2ccc(F)cc2)cs1)N1CCOCC1 | i | -4.3% | 0.06
O=C(NCc1ccc2c(c1)OCO2)c1nn(-c2ccccc2)c(=O)c2ccccc12 | i | -1.5% | -1.4
Cc1ccc(-n2ncc3c(NCc4ccccc4)ncnc32)cc1 | i | 5.0% | -0.18
Cc1ccc(CNC(=O)CCNC(=O)c2ccc(Br)o2)cc1 | i | 3.9% | nt
NC(=O)c1cc(-c2ccccc2)nc(Oc2ccccc2)n1 | i | 0.9% | 0.05
O=C(Nc1ccc(Cl)cc1)NC1CCCCC1 | i | 1.6% | nt
CCOC(=O)c1c(C)n(C)c2ccc(OCCN(C)C)cc12 | i | 3.6% | nt
OC1C2CN3CCN(C2)CC1(Cc1ccccc1)C3 (stereo unspecified) | i | -0.6% | nt
COc1cccc(CNC(=O)CSCc2cnn(-c3ccccc3)c2-n2cccc2)c1OC | i | 2.2% | nt
Cc1nn(Cc2cccc(C(=O)NC3CCCCC3)c2)c(C)c1Cl | i | 1.3% | nt
Cc1ccc(-c2nc3ccccc3n2C)o1 | i | -3.2% | nt
NC(=O)c1nsnc1-c1ccccc1O | i | -2.0% | 0.83
O=C(CS(=O)(=O)Cc1ccccc1)Nc1nc2c(s1)CCCC2 | i | -3.0% | -0.34
Cc1cc(C)c(C(=O)COc2cccnc2[N+](=O)[O-])cc1C | i | 2.6% | nt
CC(C)OC(=O)c1cccnc1SCc1cc(=O)n2ccccc2n1 | i | 1.8% | 1
COC(=O)c1c(NC(=O)Cc2ccccc2)sc(C)c1C | i | 2.2% | nt
CCN(CC)S(=O)(=O)c1cccc(NC(=O)COC(=O)CCc2nc3ccccc3s2)c1 | i | 1.6% | nt
CCCCCCP(=O)(O)c1ccccc1 | i | 3.2% | -0.4
Cc1cc(NC(=O)C2CCN(S(=O)(=O)c3cnc[nH]3)CC2)ccc1Br | i | -3.2% | 1.2
COc1ccc(OC)c(S(=O)(=O)N2Cc3ccccc3CC2C(=O)O)c1 (stereo unspecified) | i | -3.4% | -0.9
Cc1noc(C)c1CSc1nnc(-c2cccnc2)n1C1CCCCC1C (stereo unspecified) | i | -0.1% | 0.55
CC1=C(C(=O)OC(C)C)C(c2ccccc2Cl)CC(=O)N1 (stereo unspecified) | i | -1.3% | -0.65
CCn1c2ccccc2c2cnc(N=CN(C)C)c(C#N)c21 | i | 0.6% | nt
COc1ccc(NC(=O)N2CCOCC2)cc1OC | i | 1.5% | nt
CCCCn1c(CN2CCN(c3cccc(Cl)c3)CC2)nc2c1c(=O)n(C)c(=O)n2C | i | 2.9% | -0.78
O=c1cc(N2CCOCC2)[nH]c(=O)n1-c1ccc(Cl)cc1 | i | 3.3% | 1.4
Cc1ccc(C)c(OCc2nc(-c3cccnc3)no2)c1 | i | -4.7% | -0.62
CCNC(=O)N1CCNC(=O)C1CC(=O)OC (stereo unspecified) | i | -5.4% | 1.3
CCN(CC)C(=O)Cn1c(=O)n(Cc2ccccc2Cl)c2c1c(=O)n(C)c(=O)n2C | i | 6.0% | -1.5
Cc1cc(Nc2ccccc2)n(-c2ccccc2)n1 | i | -2.0% | -0.22
COc1ccccc1C(=O)N1CCCN(C(=O)c2ccccc2OC)CC1 | i | -3.8% | 0.48
CCOc1ccc(NC(=O)CSc2nnc(-c3ccccc3)n2N)cc1 | i | 0.5% | -0.87
NC(=O)c1ccccc1NC(=O)CCCN1C(=O)CCC1=O | i | 5.0% | 0.32
Cc1cc(C)n2nc(CC(=O)NC3CCCCCCC3)nc2n1 | i | -4.6% | 2
COc1cccc(OC)c1C(=O)Nc1cc(Cl)ccc1N1CCOCC1 | i | 1.7% | 0.09
Cc1ccc(C)c(Cn2c(C(=O)OC(C)C)cc3c2ccn3C)c1 | i | -6.1% | nt
Cc1c(CNC(=O)c2nn3c(c2Cl)NC(c2ccccc2)CC3C(F)(F)F)cnn1C (stereo unspecified) | i | 0.1% | -0.18
CCn1cc(-c2cc(C(F)(F)F)n3nc(C(=O)O)cc3n2)c(C)n1 | i | -2.2% | -0.31
COC(=O)c1ccccc1NC(=O)CSc1nnnn1C1CCCCC1 | i | 1.6% | -0.3
CCOc1cc(-c2noc(CCC(=O)Nc3cccnc3)n2)ccc1OC | i | -1.0% | -1.1
CCN(CC)C(=O)CN(c1cccc(OC)c1)S(=O)(=O)c1ccc(C)cc1 | i | 2.2% | nt
CC(NC(=O)CN1CCC(C(N)=O)CC1)c1ccccc1 (stereo unspecified) | i | 1.3% | 0.81
CN1CCN(C(CNS(=O)(=O)c2ccc(Cl)cc2)c2cccnc2)CC1 (stereo unspecified) | i | -5.1% | 0.13
CCOC(=O)c1cccnc1SC(CC)C(=O)N1CCOCC1 (stereo unspecified) | i | 2.0% | 0.95
COC(=O)c1ccc(OC(=O)C2CC(=O)N(c3ccc(C)cc3C)C2)cc1 (stereo unspecified) | i | 6.5% | -0.42
O=C(N/N=C/c1ccco1)c1cc(-c2cccc3ccccc23)n[nH]1 | i | -0.7% | nt
CCOC(=O)C1C(=O)NC(N2CCOCC2)=NC1C(C)C (stereo unspecified) | i | 1.2% | -0.06
CCOc1ccccc1C(=O)Nc1nccs1 | i | -0.2% | -0.28
CC(=Nc1ccccc1C)C1=C(O)CSC1=O | i | 0.8% | nt

Part of the list above in order of SMILES length, lowest first.
SMILES | MT1-MMP promoter | Hsc70 ATP site | WNV NS2B-NS3 inh
Cc1cc(C)n2nc(CC(=O)NC3CCCCCCC3)nc2n1 | i | -4.6% | 2
COc1cccc(OC)c1C(=O)Nc1cc(Cl)ccc1N1CCOCC1 | i | 1.7% | 0.09
CCN(CC)C(=O)CN(c1cccc(OC)c1)S(=O)(=O)c1ccc(C)cc1 | i | 2.2% | nt

Returning to the listing; the 4 compounds before the break are reprinted first.
SMILES | MT1-MMP promoter | Hsc70 ATP site | WNV NS2B-NS3 inh
O=C(N/N=C/c1ccco1)c1cc(-c2cccc3ccccc23)n[nH]1 | i | -0.7% | nt
CCOC(=O)C1C(=O)NC(N2CCOCC2)=NC1C(C)C (stereo unspecified) | i | 1.2% | -0.06
CCOc1ccccc1C(=O)Nc1nccs1 | i | -0.2% | -0.28
CC(=Nc1ccccc1C)C1=C(O)CSC1=O | i | 0.8% | nt
CCOc1cc(C(=O)O)cc(Cl)c1OC | i | -4.5% | nt
CC(=O)Nc1nc2n(n1)C(c1ccccc1)C=C(c1ccccc1)N2 (stereo unspecified) | i | 32% | -0.77
O=C(OCCN1CCCCC1)c1ccc(O)cc1 | i | -1.2% | -0.47
CC(=O)N1CCn2c3c(c(=O)c4cc(C)ccc42)CCC31 (stereo unspecified) | i | -0.7% | -0.64
O=C(Nc1nc2ccc(S(=O)(=O)N3CCCC3)cc2s1)C1CCCCC1 | i | -2.7% | 0.4
CCc1nc2cc(C)nn2c2nc3ccccc3n12 | i | 3.1% | -1.5
Cc1cn(C2OC(COC(=O)c3ccccc3)C(OC(=O)c3ccccc3)C2OC(=O)c2ccccc2)c(=O)[nH]c1=O (stereo unspecified) | i | -3.2% | nt
O=C(CCNS(=O)(=O)c1ccc(Br)s1)Nc1ccc(Cl)cc1 | i | -1.2% | nt
CCOC(=O)c1c(CN2CCCCC2)n(C)c2cc(Br)c(OC)cc12 | i | 2.5% | -0.16
CC(NS(=O)(=O)c1ccc(CCC(=O)NCC2CCCO2)cc1)c1ccccc1 (stereo unspecified) | i | 0.7% | nt
C=CCSc1nnc(NC(=O)c2nc(SCC)ncc2Cl)s1 | i | 2.7% | nt
Nc1nc(SCC(=O)NC2CCCCCC2)[nH]c(=O)c1-c1ccccc1 | i | 3.2% | nt
COc1ccc(NC(=O)C2CCN(c3nc(C)cc(C)n3)CC2)cc1 | i | -3.0% | nt
COC(=O)CCCCC1SCC2NC(=O)NC21O (stereo unspecified) | i | 5.3% | nt
CCOc1ccccc1N(CC(=O)NC1CCCCC1)C(=O)CNC(=O)c1ccco1 | i | 3.6% | nt

More structures follow.
| Structure | MT1-MMP promoter | Hsc70 ATP site | WNV NS2B-NS3 inh |
| --- | --- | --- | --- |
| CCC(=O)N(Cc1cc(=O)[nH]c2ccccc12)C1CCCCC1 | i | 1.5% | 0.67 |
| COc1ccc(/C=N/Nc2nccnc2Cl)cc1 | i | 3.5% | nt |
| CCS(=O)(=O)c1nc2ccccc2n1CC(=O)N1CCCCC1 | i | 0.1% | -0.54 |
| COc1ccc2[nH]cc(C(=O)CN3CCN(C(=O)c4ccco4)CC3)c2c1 | i | -1.6% | -0.72 |
| O=C(NCc1ccco1)C1c2ccccc2Oc2ccccc21 | i | -9.7% | -0.93 |
| O=C(Nc1cccc(-c2cn3cccnc3n2)c1)c1ccc(Br)o1 | i | 2.6% | 1.2 |
| O=c1[nH]c2ccc(S(=O)(=O)N3CCN(C4CCCCC4)CC3)cc2[nH]c1=O | i | -3.5% | -0.26 |
| Cc1cccc(N2C(=O)CC(N3CCN(c4cccc(C(F)(F)F)c4)CC3)C2=O)c1 (stereo unspecified) | i | -1.9% | -0.11 |
| Cc1cc(NC(=O)CCC(=O)N(CC(=O)NC2CCCC2)c2ccc3c(c2)OCCO3)no1 | i | -2.7% | -0.68 |
| CCNC(=O)CC1C(=O)N(c2ccc(F)cc2)C(=O)N1CCc1ccc(OC)cc1 (stereo unspecified) | i | 1.9% | 0.3 |
| Cc1c([N+](=O)[O-])cc(C(=O)Oc2ccc(Br)cc2C(=S)N2CCCCC2)cc1[N+](=O)[O-] | i | -0.6% | nt |
| O=C(c1ccccc1NS(=O)(=O)c1ccc(Br)s1)N1CCOCC1 | i | -6.5% | 0.4 |
| Cc1cc(S(=O)(=O)N2CCN=C2c2ccccc2)ccc1F | i | -2.2% | nt |
| C=CCn1c(SCC(=O)c2cccs2)nc2sc(C)cc2c1=O | i | -9.2% | -0.98 |
| COc1ccccc1-c1nnc(NC(=O)OCC(C)C)s1 | i | -9.4% | -1.2 |
| Cc1cc(N2CCN(C)CC2)nc2ccc(NC(=O)c3ccc4c(c3)OCO4)cc12 | i | -8.0% | nt |
| CCCn1cnc2c(=O)oc3ccccc3c21 | i | 4.9% | nt |
| Cc1cc(C)c(S(=O)(=O)N(CC(=O)O)C2CCCCC2)c(C)c1 | i | 1.1% | 0.43 |
| Cc1cnnc2c1-c1nonc1CC2 | i | 6.2% | -0.59 |
| Cc1cc(C)nc(N(C#N)CC(=O)Nc2ccccc2)n1 | i | 0.6% | -0.22 |
| Cc1ccc(C(C(=O)NC2CCCCC2)N(Cc2ccco2)C(=O)Cn2cnc3ccccc32)cc1 (stereo unspecified) | i | -1.8% | nt |
| CN1CCN(c2nc(-c3ccccn3)nc3ccccc23)CC1 | i | -2.7% | nt |
| COc1cccc(C(=O)Nc2cccc(OCC(=O)O)c2)c1 | i | -2.8% | nt |
| COc1ccc(NC(=O)Nc2cccc(C)n2)cc1 | i | -1.0% | 1.1 |
| Cc1ccc(N(CC(O)CN2CCCC2)S(=O)(=O)c2ccc(C)cc2)cc1 (stereo unspecified) | i | -3.0% | 0.82 |
| COc1ccc(-n2c(SCC(N)=O)nnc2-c2ccccc2F)cc1 | i | 1.9% | 0.2 |
| COc1cccc(-c2csc(N3CCN(CC(=O)Nc4ccc5c(c4)OCO5)CC3)n2)c1 | i | -2.3% | -0.52 |
| COc1cc2c(cc1OC)CN(S(=O)(=O)c1ccc3c(c1)OCCO3)CC2 | i | 4.3% | 1.6 |
| c1ccc(Cc2nnc3sc(-c4cccs4)nn23)cc1 | i | -4.3% | 0.73 |
| CCOc1ccccc1C1C2C(=O)N(c3ccccc3)C(=O)C2ON1c1ccccc1 (stereo unspecified) | i | -4.0% | -0.39 |

Screening results: PubChem, several laboratories
